Assay outcomes (PubChem BioAssay)
VACV Venus inh: inhibitors of vaccinia virus (Venus reporter) | Vaccinia virus Venus reporter expression, fluorescence | Potency, µM (doses to about 36.5 µM), for the others: at the top dose activity change, negative = inhibition, usual class: inhibitors | 330,000 tested, 0.46% active | AID 720580; active means well fitted inhibition curve with a large enough effect; inconclusive means small, poorly fitted or top-dose-only effect; inactive means no such curve, though single readings can be large or run the other way; tested in A549 cells; note: nearly all actives have a fitted effect of over 30% in size; inactives centre near -10
VACV mCherry inh: vaccinia inhibition (mCherry reporter). Vaccinia virus mCherry reporter infection, fluorescence; about a quarter of the inactives have no number. Potency, µM (highest dose often 36.5 µM), for inactives: at the highest dose activity change, negative = inhibition, usual class: inhibitors. 310,000 tested, 0.63% active; active = well fitted inhibition curve with a large enough effect; inconclusive = small, poorly fitted or top-dose-only effect; inactive = no such curve, though single readings can be large or run the other way; tested in A549 cells; note: nearly all actives have a fitted effect of over 35% in size; inactives centre near -10
* = called active by the depositor; i = inactive; ? = inconclusive; . = not tested or not shown; & = joins results of further samples; [ ] = remark or other dose. % is set by controls: 0 for no effect and ±100 for the full control effect; potency is the fitted concentration of half-maximal effect.

no.	mol	VACV Venus inh	VACV mCherry inh
1	CC1(C)Cc2c(c(-c3ccco3)nc3sc4c(NCC5CCCO5)ncnc4c23)CO1 (stereo not given)	-14%	8%
2	CSCCC(NC(=O)c1ccccc1Br)C(=O)NCC(C)(C)N1CCOCC1 (stereo not given)	-17%	i
3	Cn1ccs/c1=N\S(=O)(=O)c1ccc(C(C)(C)C)cc1	-2%	-3%
4	CCN(CC)C(=O)c1c(-c2ccccc2)c(-c2ccccc2)nn(CC)c1=O	-4%	-2%
5	CC(C)N(CC#CCC(O)(c1ccccc1)c1ccccc1)C(C)C	-8%	i
6	O=C(C[n+]1cc(Br)cc2ccccc21)c1ccc(Br)cc1	1%&10%	-8%&-9%
7	O=C(N[C@@H](Cc1ccccc1)c1nc2ccccc2[nH]1)c1cc([N+](=O)[O-])ccc1Cl	-18%	-9%
8	COc1cc(/C=N/NC(=O)c2cc(-c3cccc(Br)c3)nc3ccccc23)cc(OC)c1O	-27%	-26%
9	COc1ccc(C(=O)NNC(=O)CCC(=O)Nc2cc(C)on2)cc1	-10%	-14%
10	Cc1ccc(C)c(-n2nnnc2Sc2nc([N+](=O)[O-])nn2C)c1	?	?
11	O=C(OCC(=O)N1CCN(c2ccccc2)CC1)c1ccc2ncsc2c1	-6%	-13%
12	COc1cccc(CN(C)C(=O)C(Cc2ccccc2)NC(=O)c2ccccc2)c1OC (stereo not given)	-5%	-6%
13	CC1CN(C2CCN(C(=O)COc3ccc(Cl)cc3)CC2)CC(C)O1 (stereo not given)	-22%	.
14	COc1ccc(S(=O)(=O)N(C)C[C@H]2Oc3c(NC(=O)c4ccncc4)cccc3C(=O)N([C@H](C)CO)C[C@@H]2C)cc1	-3%	i
15	CCC(C)NS(=O)(=O)c1ccc(NC(=O)c2ccc([N+](=O)[O-])cc2Cl)cc1 (stereo not given)	-8%	-10%
16	CN(CC(=O)Nc1ccccc1F)S(=O)(=O)c1ccc2c(c1)c(=O)n(C)c(=O)n2C	0%	-7%
17	Clc1ccc(CN2CC[C@H]3C=CCc4cccc(c43)C2)cc1	0%	?
18	OCc1ccccc1CNCc1ccccc1	-10%	i
19	CC(C)=CC(=O)N1CC[C@@H](N2CCN(c3ccccc3F)CC2)[C@H](O)C1	-7%	-11%
20	COC(=O)c1ccc(COC(=O)CCNS(=O)(=O)c2ccc(C)c(C)c2)cc1	4%	?
21	CC1(C(O)(C#CC[N+]2(C)CCCCC2)c2ccccc2)CCCC1 (stereo not given)	-3%	-3%
22	Cc1ccc(C(c2nnnn2CCc2ccccc2)N2CCC(C)CC2)cc1 (stereo not given)	-21%	-24%
23	Cc1[nH]nc(SCC(=O)NC(C)c2ccccc2)c1[N+](=O)[O-] (stereo not given)	-9%	i
24	CCCS(=O)(=O)NC(=O)C1(C)CCN(C(=O)c2cc(F)ccc2C)C1 (stereo not given)	2%	1%
25	CC(=O)c1c(C)oc2ccc(N(C(C)=O)S(=O)(=O)c3ccc(Cl)c([N+](=O)[O-])c3)cc12	-6%	.
26	CC(=O)c1cc(-c2ccccc2)n(CC(=O)N2CCCC2)c1C	-4%	-13%
27	CC(C)c1ccc(N2C(=O)CS(=O)(=O)C23C(=O)N(Cc2cccc(F)c2)c2ccccc23)cc1 (stereo not given)	-2%	8%
28	CC(C)n1c(=S)[nH]c2ccccc21	-6%	-15%
29	Cc1sc2ncnc(N3CCC(C(=O)NNC(=O)c4ccc(Cl)cc4)CC3)c2c1C	-21%	-15%
30	COc1ccc(NC(=O)Cn2c(=O)n(CCCC(=O)NCCc3ccc(C)cc3)c(=O)c3ccccc32)cc1Cl	-15%	-14%
31	CC1(C)Cc2ccccc2C(=C(C#N)C#N)N1	-12%	-4%
32	CC(=O)Nc1cccc(Nc2cc(C)nn2C)c1	1%	9%
33	COCCn1c(-c2ccco2)nc2nc3ccccc3nc21	13%	3%
34	O=C(Cc1ccc(Cl)cc1Cl)NCc1cccnc1	-3%	-18%
35	COCCNC(=O)CN1C2CCC1CC(O)(c1cccnc1)C2 (stereo not given)	-8%	-16%
36	COc1ccccc1C(=O)NCCC(=O)N1CC(C)OC(C)C1 (stereo not given)	7%	-8%
37	COc1ccc(Cn2ccnc2SCC(=O)Nc2cc(C(F)(F)F)ccc2Cl)cc1	-10%	-2%
38	N/C(CCS(=O)(=O)c1ccc(Cl)cc1)=N\OC(=O)c1ccccc1Cl	-11%[7.34 µM]	i[7.34 µM]
39	O=C(CC(Nc1cccc(Cl)c1Cl)C(=O)OCC(=O)c1cccs1)c1ccccc1 (stereo not given)	0%	-14%
40	O=C(CS(=O)(=O)Cc1ccccc1)Nc1ccc2c(c1)OCO2	-17%	i
41	CNC(=O)C[C@H]1C(=O)N(Cc2ccccc2)C[C@@H]1C	-2%	i
42	CC1CCC(NC(=O)c2ccc3nc[nH]c3c2)CC1 (stereo not given)	-4%	-7%
43	O=C(NCc1ccccc1)C1CCN(C(=O)Cc2ccccc2)CC1	-5%	i
44	CCN(CC)c1ccc(NS(=O)(=O)c2ccc(-c3cnc(C4CC4)o3)cc2)c(C)c1	-13%	-26%
45	COC(=O)c1sccc1-n1cc(C#N)c(=O)n(C)c1=O	-4%	-7%
46	Cn1cc(CN2C[C@]3(C)C[C@H]2CC(C)(C)C3)c(-c2ccc3c(c2)OCCO3)n1	-6%	?
47	Cc1ccccc1OCC(=O)Nc1ccc(N2CCN(C(=O)c3ccco3)CC2)cc1	?	?
48	O=C1OC(c2ccc3ccccc3c2O)(c2ccc3ccccc3c2O)c2ccccc21	3%	?
49	NC[C@H]1O[C@H](O[C@H]2[C@H](O)[C@@H](O[C@H]3O[C@H](CO)[C@@H](O)[C@H](N)[C@H]3O)[C@H](N)C[C@@H]2N)[C@H](N)[C@@H](O)[C@@H]1O	-9%&-10%	-16%
50	COc1cc(NC(=O)c2cc3cccc(OC)c3o2)cc(C(=O)Nc2cccc(C(F)(F)F)c2)c1	?	?
51	O=C(NC1=NCCS1)C12CC3CC(CC(C3)C1)C2	-6%	-10%
52	COc1ccc(OCc2nnc3n2N=C(c2ccc(Br)cc2)CS3)cc1	-6%	-5%
53	CCNC(=S)N/N=C(\C)c1cccc(C(F)(F)F)c1	-13%	-10%
54	CC(C)(C)OC(=O)N[C@@H](C(=O)OC(C)(C)C)c1ccc2ccccc2c1	-15%	-23%
55	COCC(=O)N(Cc1ccco1)c1nnc(C2CCOC2)s1 (stereo not given)	-5%	-12%
56	O=C(Nc1cccnc1)c1c(O)c2c(n(Cc3ccccc3)c1=O)CCCC2	9%	.
57	CCOC(=O)C1=CCN(S(=O)(=O)c2ccccc2Br)C1c1cccc(Cl)c1 (stereo not given)	-5%	35%[activator]
58	Nc1nc2ccc(C(=O)N3CCCCC3)cc2s1	-8%	i
59	O=C(CCN1C(=O)c2ccncc2C1=O)Nc1cc(F)ccc1F	-13%	-9%
60	COc1ccc(CCNC(=O)C/C(C)=N/NC(=O)Cc2cccc3ccccc23)cc1OC	-12%	i

21 of the compounds above, with one line to a screen.
31	CC1(C)Cc2ccccc2C(=C(C#N)C#N)N1
32	CC(=O)Nc1cccc(Nc2cc(C)nn2C)c1
33	COCCn1c(-c2ccco2)nc2nc3ccccc3nc21
34	O=C(Cc1ccc(Cl)cc1Cl)NCc1cccnc1
35	COCCNC(=O)CN1C2CCC1CC(O)(c1cccnc1)C2 (stereo not given)
36	COc1ccccc1C(=O)NCCC(=O)N1CC(C)OC(C)C1 (stereo not given)
37	COc1ccc(Cn2ccnc2SCC(=O)Nc2cc(C(F)(F)F)ccc2Cl)cc1

| Screen / compound no. | 31 | 32 | 33 | 34 | 35 | 36 | 37 |
| --- | --- | --- | --- | --- | --- | --- | --- |
| VACV Venus inh | -12% | 1% | 13% | -3% | -8% | 7% | -10% |
| VACV mCherry inh | -4% | 9% | 3% | -18% | -16% | -8% | -2% |

38	N/C(CCS(=O)(=O)c1ccc(Cl)cc1)=N\OC(=O)c1ccccc1Cl
39	O=C(CC(Nc1cccc(Cl)c1Cl)C(=O)OCC(=O)c1cccs1)c1ccccc1 (stereo not given)
40	O=C(CS(=O)(=O)Cc1ccccc1)Nc1ccc2c(c1)OCO2
41	CNC(=O)C[C@H]1C(=O)N(Cc2ccccc2)C[C@@H]1C
42	CC1CCC(NC(=O)c2ccc3nc[nH]c3c2)CC1 (stereo not given)
43	O=C(NCc1ccccc1)C1CCN(C(=O)Cc2ccccc2)CC1
44	CCN(CC)c1ccc(NS(=O)(=O)c2ccc(-c3cnc(C4CC4)o3)cc2)c(C)c1

| Screen / compound no. | 38 | 39 | 40 | 41 | 42 | 43 | 44 |
| --- | --- | --- | --- | --- | --- | --- | --- |
| VACV Venus inh | -11%[7.34 µM] | 0% | -17% | -2% | -4% | -5% | -13% |
| VACV mCherry inh | i[7.34 µM] | -14% | i | i | -7% | i | -26% |

45	COC(=O)c1sccc1-n1cc(C#N)c(=O)n(C)c1=O
46	Cn1cc(CN2C[C@]3(C)C[C@H]2CC(C)(C)C3)c(-c2ccc3c(c2)OCCO3)n1
47	Cc1ccccc1OCC(=O)Nc1ccc(N2CCN(C(=O)c3ccco3)CC2)cc1
48	O=C1OC(c2ccc3ccccc3c2O)(c2ccc3ccccc3c2O)c2ccccc21
49	NC[C@H]1O[C@H](O[C@H]2[C@H](O)[C@@H](O[C@H]3O[C@H](CO)[C@@H](O)[C@H](N)[C@H]3O)[C@H](N)C[C@@H]2N)[C@H](N)[C@@H](O)[C@@H]1O
50	COc1cc(NC(=O)c2cc3cccc(OC)c3o2)cc(C(=O)Nc2cccc(C(F)(F)F)c2)c1
51	O=C(NC1=NCCS1)C12CC3CC(CC(C3)C1)C2

| Screen / compound no. | 45 | 46 | 47 | 48 | 49 | 50 | 51 |
| --- | --- | --- | --- | --- | --- | --- | --- |
| VACV Venus inh | -4% | -6% | ? | 3% | -9%&-10% | ? | -6% |
| VACV mCherry inh | -7% | ? | ? | ? | -16% | ? | -10% |

Next structures:
no.	mol	VACV Venus inh	VACV mCherry inh
61	CCOC(=O)c1c(NC(C)=O)c2c3c(sc2n1Cc1nc(-c2ccccc2OCC)oc1C)CCCC3	-13%	-16%
62	COCCC(=O)N1CCC(Oc2ccc(C(=O)NCCCC3CCCC3)cc2)CC1	-29%	-13%
63	Cc1ncc(CN2CCCC(C(=O)Nc3ccc(-c4cccc(F)c4)cc3)C2)n1C (stereo not given)	-23%	?
64	Cc1ccccc1-n1nc2c(c1NC(=O)C1CC1)CS(=O)(=O)C2	-6%	i
65	COc1ccc(CC(=O)NNS(=O)(=O)c2ccccc2[N+](=O)[O-])cc1OC	-3%	-19%
66	CCOC(=O)[C@H]1[C@H]2COc3ccc(Br)cc3[C@H]2N2C(=O)CN(CCc3c[nH]c4ccccc34)C(=O)[C@@]12C	-20%	-14%
67	Cc1ccc([C@@H]2CC(=O)[C@@H]3CN(S(=O)(=O)c4ccc(C)cc4)[C@H](c4ccccc4)C[C@@H]3N2S(=O)(=O)c2ccc(Cl)cc2)cc1	-14%	i
68	O=C(CSc1oc(-c2cccs2)nc1S(=O)(=O)c1ccc(F)cc1)NCC1CCCO1 (stereo not given)	-6%	-15%
69	CN(CC(=O)Nc1cccc(F)c1)C(=O)c1ccc2c(c1)S(=O)(=O)N=C1CCCCCN12	-5%	-8%
70	CCCCC[C@H](O)/C=C/[C@H]1CCC(=O)[C@@H]1CCCCCCC(=O)N1CCCCC1CO (stereo not given in full)	-24%	i
71	O=C1NC(=O)C(Sc2ccccc2[N+](=O)[O-])C(=O)N1	14%	?
72	Cc1ccc(OCC(=O)Nc2ccc(-c3nc4ccc(C)cc4o3)cc2)cc1	-3%	-6%
73	CN1CCN(C(=O)Cn2ncc3c4ccccc4n(Cc4ccc(Cl)cc4)c3c2=O)CC1	-14%	-12%
74	O=C(Nc1nnc(CCOCCOCCc2nnc(NC(=O)c3ccco3)s2)s1)c1ccco1	-11%	-11%
75	Nc1c(C(=O)NCc2ccco2)sc2nc(N3CCOCC3)c3c(c12)CCCC3	?	?
76	Cc1ccc(C(Sc2ccccc2)C(Cn2cncn2)C(=O)c2ccccc2)cc1 (stereo not given)	-25%	.
77	CCOCCCn1c(SCC(=O)Nc2ccc(C(C)C)cc2)nc2c(sc3ccccc32)c1=O	-17%	-10%
78	COc1cc(/C=N/NS(=O)(=O)c2ccc3ccccc3c2)ccc1OCCN1CCOCC1	-14%	-14%
79	Cc1cccc(Nc2ccccc2C(=O)O)c1C	-6%&-9%	-17%&-17%
80	Cc1cccc2c3c([nH]c12)CCNC3	1%	-13%
81	CCOc1cc(CNCCc2ccc(S(N)(=O)=O)cc2)ccc1OCC(=O)NC(C)(C)C	-14%	.
82	Cc1ccc2c(c1)ncc[n+]2CC(=O)c1ccc(F)cc1	-8%	-11%
83	O=C(NC1CC1)c1cc(Cl)nc2ccccc12	12%	-6%
84	CC(OC(=O)c1nsc(Cl)c1Cl)C(=O)NC1CCCCC1 (stereo not given)	-2%	i
85	CCC1(C)COC(C)(CC(=O)NNC(=O)Nc2ccccc2)OC1 (stereo not given)	5%	10%
86	Cc1nc2c(-c3ccccc3)c(C)nn2c(N)c1-c1ccccc1	?	.
87	Cc1cc(NC(=O)CCC(=O)N(Cc2ccco2)C(C(=O)NC2CCCC2)c2ccccc2F)no1 (stereo not given)	1%	1%
88	CC(=O)Nc1ccc(C(=O)OCC(=O)c2ccc(F)cc2)cc1	-16%	i

This is a random part of the collection. About 0.82% of those tested had a hit in this group.
